Bioassay records deposited in PubChem BioAssay by National Center for Advancing Translational Sciences (NCATS).
Rango release inh = inhibitors of RanGTP-induced Rango-importin beta complex dissociation | Biochemical FRET Rango-importin beta, RanGTP-induced dissociation | Potency, µM (highest dose often 46.1 µM), for inactives: top-dose activity change, negative = inhibition | AID 540253 | 0.071% of 340,000 active | O95149+P62826; active means falling FRET ratio curve, often poorly fitted, with flat reads before Ran was added; inconclusive means other falling curves, or compound fluorescence or quenching; inactive means flat or rising ratio curve;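 also: potency is read from the fitted curve at half-maximal effect; % of control where 0% means no effect; nearly all actives have a fitted effect of over 45% in size; -100% = wells without RanGTP and RCC1; the record marks most hits as doubtful in a second field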
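Compounds preincubate 5 min with complex of recombinant Rango and importin beta in PBS with 1 mM DTT. Ran (0.6 uM) loaded with 2 mM GTP plus 0.2 uM RCC1 starts dissociation; FRET is recorded 45 min later.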
GLA inh pH 4.5 = inhibitors of human alpha-galactosidase A at pH 4.5; AID 1467; 230,000 tested, under 10 active; activity change, negative = inhibition, % at 105 µM; purified enzyme, 4-MU-alpha-Gal fluorescence, pH 4.5; inconclusive = small, poorly fitted or top-dose-only inhibition, or a rising curve; inactive = flat fitted curve, though single readings scatter; no compound was filed as active;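 also: 0% = full activity with enzyme and -100% = basal without enzyme; dose as in the result columns while the protocol names 77 µM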
Target sequence (P06280 whole entry, looked up): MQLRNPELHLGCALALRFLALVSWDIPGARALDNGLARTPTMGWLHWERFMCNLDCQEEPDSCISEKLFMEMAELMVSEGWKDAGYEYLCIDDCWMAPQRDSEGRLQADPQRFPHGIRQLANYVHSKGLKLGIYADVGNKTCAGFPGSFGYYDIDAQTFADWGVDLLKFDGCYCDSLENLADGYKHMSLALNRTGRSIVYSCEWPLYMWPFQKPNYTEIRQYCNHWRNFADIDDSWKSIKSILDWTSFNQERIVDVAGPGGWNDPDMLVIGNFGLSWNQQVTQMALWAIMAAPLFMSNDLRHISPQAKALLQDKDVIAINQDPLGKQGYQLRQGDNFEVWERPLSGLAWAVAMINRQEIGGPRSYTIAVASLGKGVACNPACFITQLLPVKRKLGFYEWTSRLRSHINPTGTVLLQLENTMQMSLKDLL
miR-21 FLuc = raises the signal of a miR-21 reporter; HeLa miR-21 FLuc reporter, luciferase, 48 h; Potency, µM (series often up to 38.3 µM), without a hit: top-dose reporter change, positive = more light; 340,000 tested, under 10 active; AID 2288; active = well fitted rising curve with a large enough effect; inconclusive = small, poorly fitted or top-dose-only effect; inactive = no such curve, though single readings can be large or run the other way;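 also: % of control where 0% means no effect; miR-21 action dims this reporter so a rising signal means less miR-21 action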
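HeLa miR-21-FLuc reporter line, endogenous miR-21; 2000 cells/well in DMEM/10% FBS; compound titration up to ~40uM final, 48 h, 37 degree Celsius; luciferase detection reagent, 15 min lysis, CCD luminescence.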
Rango-impB inh = inhibitors of Rango-importin beta complex formation; 0.031% of 340,000 active; Q14974; Rango CFP/YFP FRET sensor + importin beta, 45 min; Potency, µM (highest dose often 92.2 µM), without a hit: top-dose inhibition of complex formation; active = rising FRET ratio curve, often small or poorly fitted; inconclusive = mostly compound fluorescence or quenching in the first reads; inactive = flat curves in all reads;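 also: potency is read from the fitted curve at half-maximal effect; 0% = DMSO wells and 100% = buffer wells lacking importin beta; nearly all actives have a fitted effect of over 15% in size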
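FRET biosensor Rango (snurportin 1 IBB between N-terminal EYFP and C-terminal Cerulean), 50 nM in PBS/1 mM DTT/0.02% Tween-20/0.1% BSA, preincubated 5 min RT with compound; 0.125 microM importin beta added, 45 min RT, CFP/YFP FRET ratio read.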
Active calls of the source: *; ? = inconclusive; nt = no result given; & = joins results of further samples; [ ] = dose if it differs, or a comment. An excerpt, so the mix of outcomes need not match the whole.

Rango release inh | GLA inh pH 4.5 | miR-21 FLuc | Rango-impB inh | compound
0.1% | -3.0 | -4.6% | -5.3% | COc1ccc(/C(O)=C2/C(=O)C(=O)N(CC3CCCO3)C2c2cccc(OC)c2)cc1 (stereo unspecified)
9.5% | -15.6 | -10.2% | 0.2% | O=C(Oc1cccc(Nc2ncnc3ccccc23)c1)c1ccccc1Cl
-17.5% | -5.4 | -9.7% | 1.4% | CCc1nnc(NC(=O)c2ccc(S(=O)(=O)N3CCN(Cc4ccccc4)CC3)cc2)s1
2.6% | nt | nt | 0.6% | CC1CCCC(NC(=O)CSc2ncccn2)C1C (stereo unspecified)
-14.0% | -5.9 | 1.9% | ? | COc1cc(CCC(=O)O)on1
0.5% | -3.3 | -4.4% | -0.6% | Cc1cccc(N=C2CSC(=O)N2)c1
5.5% | nt | 0.3% | -3.8% | CCOC(=O)C1CCN(C2=C(NS(=O)(=O)c3ccc(Br)cc3)C(=O)c3ccccc3C2=O)CC1
-11.7% | nt | -33.0% | -4.0% | COCCN(Cc1cn[nH]c1-c1ccc2cc(OC)ccc2c1)C(C)C
-30.7% | -7.0 | -27.3% | -6.6% | O=C(Nc1nc2c(cc3c4c(cccc42)CC3)s1)c1ccccc1Cl
-8.4% | -12.1 | 0.4% | -2.0% | Cc1ccc(S(=O)(=O)NC(CC(=O)NCC2CCCO2)c2ccco2)cc1 (stereo unspecified)
3.4% | nt | -0.4% | -0.8% | Cc1cc(-c2ccc(C)c(S(=O)(=O)N3CCN(c4ccc(F)cc4)CC3)c2)on1
21.7% | nt | -3.9% | 4.5% | O=C(CN1CCN(Cc2ccccc2)CC1)NCCc1ccccc1
4.6% | -14.0 | -6.8% | -0.4% | CCC1=NN2C(=N)/C(=C\c3cccn3-c3c(C)cccc3C)C(=O)N=C2S1
-4.1% | nt | nt | -4.0% | Cc1noc(C)c1S(=O)(=O)Nc1ccc2c(c1)C(=O)N([C@H](C)CO)C[C@H](C)[C@@H](CN(C)S(=O)(=O)c1ccccc1)O2
-23.0% | -15.2 | 4.2% | 1.0% | O=C(NCCN1CCOCC1)c1ccc2c(c1)N(Cc1ccccc1F)C(=O)c1ccccc1S2
7.8% | 3.3 | -11.0% | 1.7% | Cc1cc(N2CCN(C)CC2)nc2ccc(NC(=S)NCCCN3CCc4ccccc4C3)cc12
3.4% | -7.5 | -4.9% | 2.1% | O=S(=O)(/N=C(/Nc1cccc2ccccc12)c1ccccc1)c1cccs1
2.6% | 25.8 | -5.8% | 0.7% | COc1cccc(C(=O)Nc2cc(-c3cn4cccnc4n3)ccc2C)c1
0.1% | -5.4 | -6.5% | -4.9% | C=CCNc1nc(N2CCOCC2)nc(N2CCOCC2)n1
-1.3% | -9.2 | 2.5% | -1.2% | CN(CC(O)COc1ccc(S(=O)(=O)N2CCOCC2)cc1Cl)C1CCCCC1 (stereo unspecified)
18.0% | -0.5 | -6.3% | 3.9% | Cn1nc(C(=O)N2CCc3ccccc32)c2ccccc2c1=O
6.7% | -0.9 | -0.6% | -1.2% | CC(CCc1ccccc1)NC(=O)C(=O)N1CCOCC1 (stereo unspecified)
7.1% | 0.0 | -2.3% | -0.3% | CN(CC(O)COCc1ccccc1F)C1CCCCC1 (stereo unspecified)
-1.6% | -4.7 | -6.0% | 3.7% | CCNC(=O)c1ccccc1CCc1ccccc1
? | nt | nt | ? | COc1ccc2c(CC(=O)NNC(=O)c3ccc(O)cc3)coc2c1
-6.8% | nt | 9.9% | 2.3% | COc1ccc(NC(=O)C2CCCN(C(=O)Nc3ccc(F)cc3)C2)cc1OC (stereo unspecified)
-12.0% | -3.8 | 4.5% | 0.2% | Cc1noc(C)c1CSc1nc2[nH]ncc2c(=O)n1-c1ccccc1
2.9% | 2.6 | -3.0%&-8.6% | -0.3% | Cc1cc(C)n2nc(SCC(=O)Nc3ccccc3)nc2n1
-12.0% | -0.1 | 0.9% | -4.3% | CCc1nnc(NC(=O)c2cc(OC)c(OC)cc2[N+](=O)[O-])s1
26.2% | 1.0 | -2.2% | 7.6% | O=c1cc(-c2ccccc2)nc2nc[nH]n12
nt | -0.8 | 0.3% | nt | O=C(O)CC12CC3CC(C1)CC(n1ncc(NCc4ccc5c(c4)OCO5)c(Cl)c1=O)(C3)C2
-3.4% | 2.0 | 17.6% | 3.6% | CCC(C)Oc1ccccc1C1CC(=O)NC2=C1C(=O)CCC2 (stereo unspecified)
20.4% | -5.5 | -4.1% | -6.2% | O=C(NCCC1=CCCCC1)C1CCCN(S(=O)(=O)c2cnc[nH]2)C1 (stereo unspecified)
15.3% | 3.8 | 2.5% | -4.3% | O=C(Cn1cnc2c(nnn2Cc2ccc(Cl)cc2)c1=O)N1CCN(c2ccccc2)CC1
-5.5% | -3.0 | -1.0% | -3.3% | O=C(CCN1CCCC1)c1cccs1
-6.7% | -1.0 | -27.5% | 4.9% | COc1ccc(CNc2ccc(C)cc2)cc1Br
-12.0% | 1.2 | 2.2% | 1.1% | CCOC(=O)C1CCCN(CC(=O)Nc2c(C(=O)OC)[nH]c3ccc(C)cc23)C1 (stereo unspecified)
24.2% | -17.7 | -46.3% | 0.3% | COC(=O)C(Cc1ccc(OC(=O)c2ccc(C(F)(F)F)cc2)cc1)N1Cc2ccccc2C1=O (stereo unspecified)
2.2% | nt | nt | 2.7% | COc1ccccc1CNC(=O)c1cc(-c2ccccc2)n(Cc2cc(C)no2)n1
? | 4.7 | -17.7% | ? | N=c1c2c(ncn1CCCO)Oc1cc(O)ccc1C2c1ccccc1 (stereo unspecified)
2.2% | nt | 2.4% | 5.5% | Cc1c(NS(=O)(=O)c2cccc([N+](=O)[O-])c2)c(=O)n(-c2ccccc2)n1C
-11.9% | nt | nt | -0.8% | CC(=O)c1ccc(NC(=O)C(C)O/N=C(\N)c2ccccc2)cc1 (stereo unspecified)
24.5% | -7.0 | -8.0% | -0.6% | COc1cc(/C=C2/C(=O)NN(c3cccc(F)c3)C2=O)ccc1OC(=O)c1ccco1
-3.3% | -5.4 | 7.3% | 0.4% | COc1ccc(C(=O)c2c(C(F)(F)F)oc3c2C(=O)c2ccccc2C3=O)cc1
-6.4% | nt | -3.8% | -1.1% | COc1ccc(NS(=O)(=O)c2c(C(=O)N3CCCCCC3)c(C)n(C)c2C)cc1OC
? | -8.3 | -19.3% | ? | COc1cc(C2C3=C(CC(C)(C)CC3=O)Nc3c2c(=O)[nH]c(=O)n3Cc2ccccc2)ccc1O (stereo unspecified)
0.3% | -2.5 | -11.0% | 0.1% | COc1ccc(N(CC(=O)N2CC=C(c3ccccc3)CC2)S(=O)(=O)c2c(C)noc2C)cc1
-0.2% | -4.2 | -1.4% | 0.4% | CCCCOc1ccc(N2C(=O)CC(N(CCc3ccccc3)C(=O)/C=C/C(=O)O)C2=O)cc1 (stereo unspecified)
3.2% | 1.1 | -0.6% | 2.3% | O=C(CCCCCN1C(=O)c2ccccc2C1=O)NCc1ccco1
-7.5% | -18.6&-4.3 | 8.7%&0.6% | -0.1% | Cc1cc(Cl)cc2c1NC(=O)[C@]21[C@@H]2C(=O)N(Cc3ccccc3)C(=O)[C@@H]2[C@@H]2CCCN21

Other entries
Rango release inh | GLA inh pH 4.5 | miR-21 FLuc | Rango-impB inh | compound
3.1% | nt | -7.7% | -4.9% | CCOc1ccc(CCNC(=O)/C=C/c2ccco2)cc1OCC
-7.4% | 6.1 | -5.6% | 1.0% | CN(Cc1cc(=O)n2ccsc2n1)C1CCCCC1
-14.6% | 0.9 | -0.1% | -0.9% | CCN1CCCC1CNC(=O)Cn1cccc1C(=O)c1ccccc1 (stereo unspecified)
-3.5% | -1.7 | -1.5% | -0.3% | CC1=CC(C)C2(CO)COC(c3cccnc3)C1C2C (stereo unspecified)
-2.1% | -8.8 | -0.6% | 2.9% | CC(O)c1nc2ccccc2n1CCCCOc1ccccc1 (stereo unspecified)
1.5% | nt | 0.3% | 5.4% | Cc1ccc(-c2nc(CNC(=O)c3cc(C)on3)cs2)cc1
-7.6% | nt | 1.5% | ? | COC(=O)c1ccc(C(=O)N(C)C2CCCN(Cc3ccccc3F)C2)nc1 (stereo unspecified)
15.5% | 4.0 | -3.7% | 1.0% | CCS(=O)(=O)N1CCN(CC2CC3C=CC2C3)CC1 (stereo unspecified)
-14.8% | -5.2 | 1.0% | -2.2% | O=C(Nc1ccc([N+](=O)[O-])cc1)C1(c2ccccc2)CCOCC1
-7.6% | nt | -44.5% | -0.3% | CSCCC(=O)N1CCC(n2nccc2NC(=O)c2ccc3c(c2)OCO3)CC1
-15.5% | -17.6 | -0.6% | 0.8% | CC(/C=N/NC(=O)Cc1cc(=O)[nH][nH]1)=C\c1ccccc1
9.1% | 1.8 | 0.0% | 2.2% | Cc1ccc(SCC2(O)CCN(C(=O)c3ccc(Cl)cc3)CC2)cc1
6.3% | -4.8 | 8.5% | 2.7% | S=C(NCC1CCCO1)N1CCN(c2cccc(Cl)c2)CC1 (stereo unspecified)
2.2% | -0.2 | -6.8% | 0.4% | Cc1cccc(-c2c3c(=O)n(C)c(=O)n(C)c3c3cccnn23)c1
-22.9% | nt | nt | 2.0% | COc1ccc(C(=O)OC(C)C(=O)NC2CCCc3ccccc32)cc1OC (stereo unspecified)
0.1% | 0.8 | -63.0% | -2.7% | COc1ccc(-n2nc([N+](=O)[O-])c(=NCc3ccc4c(c3)OCO4)n2O)cc1
2.5% | nt | nt | ? | Cc1cccc(C(=O)OCC(=O)N(CC(C)C)c2c(N)n(Cc3ccccc3)c(=O)[nH]c2=O)c1C
3.5% | 3.6[21.1 µM] | -21.0% | -0.5% | Cc1cccc(Nc2nc(-c3ccncc3)cs2)c1
-6.4% | 4.0 | -10.4% | -1.0% | CCOc1ccc(C2C(C(=O)c3cccs3)=C(O)C(=O)N2Cc2cccnc2)cc1OC (stereo unspecified)
-0.2% | nt | nt | -0.5% | CC(=O)c1c(C)[nH]c(C(=O)OCc2nc3ccsc3c(=O)[nH]2)c1C
? | -5.3 | -53.5% | ? | O=C1/C(=C/Nc2cccc([N+](=O)[O-])c2)CCc2ccccc21
2.5% | 6.1 | -9.2% | -0.7% | O=c1[nH]c(=O)n(CCOc2ccc(Cl)cc2)cc1Br
-6.8% | -0.7 | 1.2% | 0.1% | COc1cc(-c2noc(CCCC(=O)NCc3ccccc3)n2)cc(OC)c1OC
7.2% | nt | -43.3% | ? | Fc1ccc(NC(=S)Nc2cccc3ccccc23)cc1
22.1% | nt | -2.6% | 0.0% | Cc1cccc(N(C(=O)CNC(=O)c2ccco2)C(C(=O)NC2CCCC2)c2ccncc2)c1C (stereo unspecified)
-8.5% | nt | -0.9% | -0.1% | Cc1cc(C)cc(NC(=O)CN2CCc3cc4c(cc3C2C)OCCCO4)c1 (stereo unspecified)
17.4% | nt | nt | -3.6% | COc1ccc(S(=O)(=O)N2c3ccc(F)cc3CCC2C)cc1 (stereo unspecified)
19.6% | 5.4 | -2.5% | 0.1% | COc1cccc(NC(=S)N(CCN(C)C)C(C)c2cccnc2)c1 (stereo unspecified)
9.1% | nt | -15.4% | -3.5% | CC(=O)N1CCCN(C(=O)c2ccc3nc(Cc4ccccc4F)oc3c2)CC1
22.6% | 4.0 | ? | 1.0% | CCOC(=O)CS(=O)(=O)c1nc(-c2ccccc2)cc(C(F)(F)F)n1
0.9% | nt | nt | -0.2% | C[C@@]12C(=O)Nc3ccc(Cl)cc3C(=O)N1[C@H]1c3cc(Cl)ccc3OC[C@@H]1[C@@H]2c1ccccc1
-0.2% | -4.1 | -5.3% | -1.6% | CCOc1ccc2c(c1)C(N(CCN1CCOCC1)C(=S)Nc1ccccc1OC)CC(C)(C)O2 (stereo unspecified)
10.1% | nt | 0.1% | 1.1% | CSc1nsc(SCC(=O)Nc2ccc(C(N)=O)cc2)n1
17.1% | nt | nt | -3.2% | COc1ccc(NC(=O)COc2coc(CN3CCCc4ccccc43)cc2=O)cc1
-1.2% | 15.6 | -0.6% | 3.2% | O=C(COC(=O)c1ccc(Br)cc1)NCc1ccccc1

An excerpt of these results, with two lines to a compound:
Below each compound – Rango release inh	GLA inh pH 4.5	miR-21 FLuc	Rango-impB inh
> CC1CCCC(NC(=O)CSc2ncccn2)C1C (stereo unspecified)
 : 2.6%	nt	nt	0.6%
> COc1cc(CCC(=O)O)on1
 : -14.0%	-5.9	1.9%	?
